D2 PAM: positive allosteric modulators of human D2 dopamine receptor; DiscoveRx D2 beta-arrestin cells, luminescence, 90 min; 100% = 57 uM dopamine signal; potentiation, % (concentration not given with the values); AID 624464; 0.23% of 360,000 active; P14416; active = potentiation of 50% or more; inconclusive = 30% to 50%; inactive = 30% or less;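 further: compound concentration not given in the record; tested on top of an EC20 dose of dopamine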
Target sequence (P14416 whole entry, looked up): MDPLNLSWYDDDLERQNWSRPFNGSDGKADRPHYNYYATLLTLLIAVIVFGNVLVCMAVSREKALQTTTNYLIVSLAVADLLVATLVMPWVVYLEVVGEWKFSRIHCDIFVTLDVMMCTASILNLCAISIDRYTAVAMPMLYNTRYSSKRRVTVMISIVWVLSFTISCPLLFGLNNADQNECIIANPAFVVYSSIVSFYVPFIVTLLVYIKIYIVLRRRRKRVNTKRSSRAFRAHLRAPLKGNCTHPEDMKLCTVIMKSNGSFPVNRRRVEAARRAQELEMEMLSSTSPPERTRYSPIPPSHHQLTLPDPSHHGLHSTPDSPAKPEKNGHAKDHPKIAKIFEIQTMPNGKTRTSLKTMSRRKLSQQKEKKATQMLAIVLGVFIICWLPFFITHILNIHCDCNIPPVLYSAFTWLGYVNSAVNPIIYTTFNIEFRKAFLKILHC
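PathHunter D2 cells, attached overnight at 37 deg C, received compound in DMSO plus dopamine at EC20 (50 nM final) for 90 min at 37 deg C. Beta-arrestin recruitment was read as luminescence after 1 h with detection reagent at ambient temperature.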
Six1-Eya2 inh: blocks human Six1 binding to Eya2. Q15475+O00167. AlphaScreen GST-Six1/His-Eya2 binding, biochemical; stronger effect = lower value; control for the full effect not named in the record. activity change, % (no concentration beside the values). 0.56% of 360,000 active; in the data active = activity change below about -65%; inconclusive = about -30% to -65%; inactive = above about -30%; further: on the % scale 0 is the no-effect control and ±100 the full control effect; compound concentration not given in the record
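Six1/Eya2 binding was read as AlphaScreen signal after compounds were pinned into GST-Six1 plus His-tagged Eya2 (5X stock 250/500 nM) in pH 8.0 Tris/NaCl/TCEP buffer, beads added, then incubated 1 h, 37 C, dark.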
TRPML1 inh: human mucolipin-1 channel inhibition; Q9GZU1; TRPML1-inducible cells, Ca2+ dye fluorescence, FDSS; stronger effect = lower value; inhibition of EC80 agonist-evoked calcium signal; activity change, negative = inhibition, % (test concentration not listed); 0.02% of 390,000 active; AID 624415; in the data active means activity change below about -50%; inconclusive means about -30% to -50%; inactive means above about -30%;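 further: stimulus is agonist 54-4 at its EC80 concentration; on the % scale 0 is the no-effect control and ±100 the full control effect; compound concentration not given in the record; the text of the record puts the active cut at -80%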
Target sequence (Q9GZU1 whole entry, looked up): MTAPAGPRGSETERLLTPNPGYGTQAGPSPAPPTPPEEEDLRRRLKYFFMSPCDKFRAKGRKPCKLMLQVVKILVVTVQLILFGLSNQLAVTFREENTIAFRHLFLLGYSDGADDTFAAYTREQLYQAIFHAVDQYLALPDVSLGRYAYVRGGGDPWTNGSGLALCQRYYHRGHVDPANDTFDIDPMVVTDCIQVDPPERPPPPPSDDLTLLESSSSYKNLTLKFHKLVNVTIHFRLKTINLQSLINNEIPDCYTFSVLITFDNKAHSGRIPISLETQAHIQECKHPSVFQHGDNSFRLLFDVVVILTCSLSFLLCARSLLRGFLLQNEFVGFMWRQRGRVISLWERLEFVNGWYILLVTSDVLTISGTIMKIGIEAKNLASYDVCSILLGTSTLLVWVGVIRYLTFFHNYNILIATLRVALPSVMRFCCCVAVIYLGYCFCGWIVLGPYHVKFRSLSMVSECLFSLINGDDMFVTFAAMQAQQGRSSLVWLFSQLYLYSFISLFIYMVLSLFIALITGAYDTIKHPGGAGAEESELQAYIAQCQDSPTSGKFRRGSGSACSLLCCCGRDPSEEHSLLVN
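TRPML1-DL cells, Tet-induced overnight (~16 h, 37 °C) at 1,500 cells/well, were loaded with Ca8 no-wash dye plus quencher for 45-90 min at room temperature. Compounds were pinned during FDSS kinetic reading; agonist 54-4 at EC80 (4 uM final) then added.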
TRPML1 ag: human mucolipin-1 channel agonism; activation, % (test concentration not listed); Q9GZU1; 0.12% of 410,000 active; TRPML1-expressing cells, Ca2+ dye fluorescence, FDSS; host cell line not named in the record; reference of the full effect not given here; in the data active = activation above about 50%; inconclusive = about 30% to 50%; inactive = below about 30%; further: 0% is about no effect; the text of the record puts the active cut at 80%
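Agonist activity was taken from a 110 s kinetic Ca2+ dye read on the FDSS after pinning compounds onto TRPML1-DL cells. The cells were seeded at 1,500/well with Tet inducer, incubated about 16 h, then dye-loaded at room temperature.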
PINK1 expr mod: PINK1 expression modulation; PINK1 immunofluorescence, high-content cytometry, 24 h; Potency, µM (titrated, usually from 76.6 µM), for the others: at the top dose activation (PINK1 increase), actives largely listed as activators; 0.2% of 410,000 active; AID 624263; active = well fitted activation curve with a large enough effect; inconclusive = small, poorly fitted or top-dose-only effect; inactive = flat fitted curve, though single readings scatter; cell line not stated here;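 further: potency means the concentration at half of the fitted maximal effect; % of control where 0% means no effect; nearly all actives have a fitted effect of over 65% in size; a mitochondrial uncoupler was the plate control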
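Stable cell line treated 24 h with compounds at 5 concentrations (CCCP controls), then fixed and immunostained for PINK1 plus nuclear and cell stains; PINK1 immunofluorescence quantified by laser-scanning microplate cytometry.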
D2 ag: human D2 receptor agonism in beta-arrestin assay; DiscoveRx PathHunter D2 beta-arrestin, luminescence, 90 min; 100% = 57 uM dopamine signal; P14416; 0.084% of 360,000 active; activation, % (test concentration not listed); AID 624465; in the data active = activation above about 40%; inconclusive = about 15% to 40%; inactive = below about 15%; further: compound concentration not given in the record; the text of the record calls up to 30% inactive
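Agonist mode: compounds alone added to overnight-plated D2 PathHunter cells for 90 min at 37 C, with 57 uM final dopamine (EC100) defining full response. Beta-arrestin recruitment detected by chemiluminescent reagent, read after 1 h at ambient temperature.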
* hit, by the source's call; ? = inconclusive; . = not tested or not shown; [ ] = remark or other dose.

Below each SMILES – TRPML1 ag	Six1-Eya2 inh	D2 PAM	TRPML1 inh	D2 ag	PINK1 expr mod
Cc1ccc(S(=O)(=O)NCCSc2nnnn2-c2ccc(Cl)c(C(=O)O)c2)cc1
→ -0.7	.	.	0.4	.	3.9%
CCOc1ccc(C(=O)NCC(=O)OCC(=O)Nc2ccccc2OC)cc1
→ 8.2	0.5	-17.0	13.9	-2.4	-2.0%
CCc1ccc(NC(=O)CSC2=Nc3ccccc3C3=NC(CCC(=O)NCc4ccccc4OC)C(=O)N23)cc1 (configuration not stated)
→ -0.4	.	.	-10.1	.	1.5%
NC(=O)NC(=O)C(c1ccccc1)N1CCN(S(=O)(=O)c2ccc(Br)s2)CC1 (configuration not stated)
→ -1.3	15.7	6.6	25.8	-0.5	2.1%
CCCNC(=O)COc1nc2ccccc2nc1N1CCOCC1
→ -0.8	8.8	-19.9	9.2	-2.5	3.8%
O=C(CSc1nc(O)cc(=O)n1-c1ccccc1)Nc1ccccn1
→ 0.7	-5.4	-6.9	0.1	0.7	-0.8%
O=C1OC(C(Cl)(Cl)Cl)Nc2ccccc21 (configuration not stated)
→ 0.0	3.3	2.4	.	-6.4	0.6%
Cc1cc(C(C)(C)C)cc(C)c1COC(=O)CN1C(=O)NC2(CCCC2)C1=O
→ 0.4	5.0	-5.7	0.7	-3.5	-0.7%
COc1ccc(C2CC(c3ccccc3)n3nc(NC(=O)c4cccs4)nc3N2)cc1 (configuration not stated)
→ 0.5	-10.2	7.4	-13.8	-2.8	0.2%
COCCn1c(SCC(=O)c2ccc(C)cc2C)nc2cc(C(=O)NC3CCCC3)ccc2c1=O
→ -0.7	.	.	-4.5	.	0.9%
Cn1c(=O)c2c(nc(N3CCCCCC3)n2CC(=O)c2ccc(Br)cc2)n(C)c1=O
→ -1.2	3.3	-14.6	-9.5	-2.2	8.2%
COc1ccc(NC(=O)c2sc(NC(=O)COc3ccccc3)nc2C)cc1
→ 0.4	-2.6	0.0	14.3	0.2	2.9%[38.3 µM]
O=C(NCCOc1ccccc1)c1cccc(S(=O)(=O)N2CCN(Cc3ccccc3)CC2)c1
→ -0.2	-6.1	-12.1	0.4	0.2	1.8%
CC(C)(C)c1cc(C(=O)NCc2ccccc2)ccn1
→ -0.6	0.6	7.3	2.9	1.6	-5.0%
CC(=O)c1ccc(S(=O)(=O)Nc2ccc(C(=O)NCC(c3ccco3)N3CCCC3)cc2)cc1 (configuration not stated)
→ 0.1	0.3	-16.5	-1.7	-2.9	-1.1%
O=C(Nc1nnc(C(F)(F)F)s1)c1ccc(N2C(=O)C3C4C=CC(C4)C3C2=O)cc1 (configuration not stated)
→ 1.1	4.2	-8.4	4.7	-3.3	2.2%[38.3 µM]
COc1ccccc1NC(=O)C1=C(C)NC(SCC(=O)Nc2ccc(C(=O)O)cc2)=C(C#N)C1c1cccs1 (configuration not stated)
→ -0.3	-8.4	7.1	-4.1	1.1	-0.6%
O=C(c1cc(S(=O)(=O)N2CCC3(CC2)OCCO3)ccc1F)N1CCCCC1
→ -0.3	-3.0	-4.2	25.9	-2.5	-0.3%
Cc1nnnn1-c1cccc(C(=O)O)c1
→ -0.5	6.1	-6.0	26.8	-1.0	1.1%[38.3 µM]
O=C(Nc1ccc(Oc2ccccc2)cc1)c1ccc(Cn2c(=O)[nH]c3ccsc3c2=O)cc1
→ 0.8	-13.6	-6.0	3.0	-3.0	5.4%
CC(C)CNS(=O)(=O)c1ccc(CCC(=O)NCc2cccnc2)cc1
→ -0.1	-2.0	-13.9	-18.9	-1.4	-1.6%
CCOc1ccc(CN2CCNC(=O)C2CC(=O)NC2CCCCCC2)cc1 (configuration not stated)
→ 1.5	-2.5	-12.1	-1.1	-7.1	3.2%
CCOC(=O)CSCC(=O)Nc1ccc(S(=O)(=O)N2CCCCC2)cc1
→ -0.7	0.0	18.7	6.0	-4.7	3.5%
Cc1ccccc1C(=O)Nc1ccc(N2CCCC2)cc1
→ 0.2	-22.7	-15.6	4.2	6.7	1.7%
COCCOC(=O)C1=C(C)N=C2SCCC(=O)N2C1c1ccc(C(=O)OC)cc1 (configuration not stated)
→ 0.5	1.6	-2.4	5.6	0.0	0.9%
O=C(CSc1nc(C2CC2)nc2ccccc12)Nc1ccccc1N1CCOCC1
→ 3.1	-0.6	-11.6	-11.4	-0.2	0.3%
CC(/C=N/NC(=O)c1cccs1)=C\c1ccccc1
→ 2.5	0.1	-13.0	17.3	4.7	1.6%
O=C(CN(Cc1ccccc1)C(=O)CSc1nnc(COc2ccccc2)o1)NC1CCCC1
→ 1.1	1.6	?	0.6	3.3	0.2%
CCOC(=O)CC1C(=O)NCCN1S(=O)(=O)c1ccc(OC)cc1 (configuration not stated)
→ 0.4	4.9	12.6	0.7	0.4	1.8%
CC(C)(C)C(=O)COC(=O)c1ccc2c(c1)C(=O)N(Cc1ccco1)C2=O
→ 0.9	-11.7	-2.1	-6.4	-0.6	0.8%
CC(=O)N(Cc1cc(=O)[nH]c2ccccc12)c1ccc(C)cc1C
→ 0.2	-8.3	-5.7	-11.2	-3.3	1.6%
O=C(Nc1nnc(-c2ccco2)o1)c1cccc2ccccc12
→ 1.1	-27.9	-2.0	16.4	-1.2	0.0%
CCN(C[C@H]1N[C@@](Cc2ccccc2)(C(=O)OC)[C@H]2C(=O)N(C)C(=O)[C@@H]12)S(=O)(=O)c1ccc(C(F)(F)F)cc1
→ -0.1	1.0	.	32.1	?	0.8%
CCOC(=O)c1c(C)[nH]c(C(=O)NCc2ccccn2)c1C
→ 1.3	-5.8	-29.2	1.7	-4.4	-1.1%
COC(=O)c1cnn(-c2nc(-c3ccccc3)cs2)c1N
→ 2.4	-12.2	-0.9	11.9	-1.8	3.2%
CCc1cccc(C)c1NC(=O)CN(C)Cc1ccccc1F
→ 1.9	9.5	0.8	4.7	-1.7	0.8%
NC(=O)CC(NC(=O)Cc1cccc2ccccc12)c1ccc(NCC2CC2)c([N+](=O)[O-])c1 (configuration not stated)
→ -0.7	-0.2	-4.9	24.3	0.7	1.8%
COc1ccc(CNC(=O)Cn2c(=O)n3nc(-c4ccc(OC)cc4)nc3c3ccccc32)cc1
→ 0.5	.	.	17.4	.	2.6%
CC(C)Cn1c(SCC(=O)N2CCc3ccccc3C2)nc(O)cc1=O
→ 0.6	-4.2	-1.0	-2.6	-3.3	0.7%
COC(=O)C(C(=O)OC)C(c1ccccc1)C(C(=O)c1ccccc1)[N+](=O)[O-] (configuration not stated)
→ 0.0	7.5	-6.0	-11.2	-5.5	0.0%
Cc1ccnc(NC(=O)c2ccco2)n1
→ -0.6	16.5	-3.5	-11.6	-5.3	2.5%
O=C(COC(=O)CCC(=O)c1ccc(F)cc1)NCc1ccccc1Cl
→ 1.1	7.5	-1.9	-5.3	0.4	-2.0%
COc1cc(Cl)c(C)cc1NC(=O)COC(=O)c1ccc(CN2CCCC2=O)cc1
→ 1.8	-0.5	-2.1	-8.0	6.2	2.5%
O=C(O)c1ccccc1N(c1ccccc1)c1ccccc1
→ 0.9	3.8	-1.8	8.6	2.5	-0.4%
CCCN(C(=O)/C=C/c1ccc(S(=O)(=O)N(CC)CC)cc1)C1CCS(=O)(=O)C1 (configuration not stated)
→ 1.3	0.2	-8.0	-17.8	-1.9	1.7%
CSc1ccc(CNC(=O)c2cc3c(=O)n(Cc4ccco4)ccc3nc2C)cc1
→ 1.6	.	.	-2.3	.	4.3%
O=C(CN(Cc1ccccc1)C(=O)CCC(=O)Nc1nccs1)NCc1ccco1
→ 0.0	-3.2	-23.2	6.6	-2.7	1.5%
Fc1cccc(Cc2noc(CN3CCCCC3c3ccccn3)n2)c1 (configuration not stated)
→ -0.1	-8.2	-2.8	12.8	0.8	4.0%
Nc1nc(-c2ccc3c(c2)OCCO3)c(CC(=O)O)s1
→ 0.0	1.2	-4.0	2.9	-6.5	1.2%
O=C(NCc1ccccc1)C1=C[C@H](C2CC2)C[C@H](OCCCCO)O1
→ -0.7	-1.9	-5.7	-12.0	-0.6	1.4%

Next part
Below each SMILES – TRPML1 ag	Six1-Eya2 inh	D2 PAM	TRPML1 inh	D2 ag	PINK1 expr mod
O=C(Cn1[nH]c(=O)c2ccccc2c1=O)Nc1cccnc1
→ -0.3	-5.0	-10.2	4.8	-7.1	-1.4%
CCOC(=O)c1ccc(NC(=S)N(CCCN2CCCCCC2)Cc2ccco2)cc1
→ -0.7	-8.5	-11.8	-6.6	-0.1	3.4%
Fc1cccc(Cc2noc(CN3CCC(c4ccncc4)CC3)n2)c1
→ -0.1	3.0	-6.9	6.7	7.9	0.5%
O=C(Cc1cccs1)NCc1ccc(Cl)cc1
→ 0.6	-4.0	1.2	3.9	0.2	-0.7%
COC(=O)Cn1c(CN2CCc3ccccc3C2)nc2c1c(=O)n(C)c(=O)n2C
→ 0.3	-0.3	0.4	-11.9	-0.6	0.7%
Cc1nn(-c2ccccc2)c(C)c1-c1ccccc1O
→ 1.1	6.0	-3.0	-3.7	-4.1	2.9%
COc1ccc(C(CC(=O)O)NC(=O)C(c2ccccc2)c2ccccc2)cc1 (configuration not stated)
→ -1.1	2.8	-7.0	6.5	-4.6	-1.7%
Cc1cccc(COc2ccccc2C(=O)N(C)CC(=O)Nc2cccc(F)c2)c1
→ 4.6	-5.0	-2.1	-4.6	0.1	0.7%
CC(=O)OC(C(=O)Nc1nccs1)c1ccccc1 (configuration not stated)
→ 0.0	1.1	0.3	5.6	-0.5	-1.4%
CC1(C)CC(NC(=O)Cc2ccccc2)CC(C)(C)N1
→ -0.3	-0.1	-0.5	?	0.9	2.2%
O=C(CN1CCN(c2ccccc2F)CC1)c1c[nH]c2ccc(F)cc12
→ 1.5	-2.5	-22.8	-9.9	0.1	-1.6%
CSC1=C(C#N)C(CC(C)C)C(C(C)=O)=C(C)N1 (configuration not stated)
→ 0.3	0.1	-23.6	5.4	1.0	7.5%
CCn1c(CNc2ccc(OC)cc2)nnc1SCC(=O)N1CCCc2ccccc21
→ -1.2	-11.1	-8.2	12.1	-3.0	-1.4%
CCOc1cccc(C(=O)Nc2ccc3[nH]ncc3c2)c1
→ 0.8	1.7	5.1	23.2	3.3	0.5%
CCOc1cccc2cc(-c3nc4sc(C(=O)Nc5ccc(C)cc5)c(C)c4c(=O)[nH]3)c(=O)oc12
→ 19.5	.	.	-7.8	.	2.3%
CC(C)OC(=O)[C@H]1[C@H](c2ccc(Cl)cc2)[C@@](C#N)(C(N)=O)[C@@H]2C=CC(C(N)=O)=CN21
→ 0.2	-9.1	5.2	5.2	1.0	2.1%
O=C(/C=C/c1ccccc1)CC(O)(c1ccccc1)C(F)(F)C(F)F (configuration not stated)
→ 59.4*	1.7	-16.4	-5.5	-3.1	15.0%[38.3 µM]
COc1ccc(C(=O)NCc2nnc(SC)n2C2CCCCC2)cc1
→ -1.3	5.5	-5.2	-5.3	-2.7	-0.2%
O=C1c2ccccc2C(=O)N1c1ncccn1
→ 0.9	0.7	-19.0	4.3	-5.6	-0.2%
O=C(CS(=O)(=O)Cc1ccccc1)Nc1nnc(C2CCCCC2)s1
→ ?	0.4	-15.2	-2.4	-1.8	1.3%

Source: PubChem BioAssay

Outcome played no part in choosing rows. About 1% of those tested had a hit in this group.
